CBX7 inh = CBX7 chromodomain binding inhibitors, primary screen, biochemical, AlphaScreen. Chromobox protein homolog 7 (Homo sapiens), O95931. AlphaScreen His6-CBX7 / biotin-H3K27me3 peptide binding; stronger effect = lower value. normalised signal (fraction of DMSO) (no concentration beside the values). actives 1.1% (n = 66,000). AID 1224903, 2016; in the data active = normalised signal below about 0.5;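 also: 100 nL library stock added to about 20 µL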
Target sequence (O95931 whole entry, looked up): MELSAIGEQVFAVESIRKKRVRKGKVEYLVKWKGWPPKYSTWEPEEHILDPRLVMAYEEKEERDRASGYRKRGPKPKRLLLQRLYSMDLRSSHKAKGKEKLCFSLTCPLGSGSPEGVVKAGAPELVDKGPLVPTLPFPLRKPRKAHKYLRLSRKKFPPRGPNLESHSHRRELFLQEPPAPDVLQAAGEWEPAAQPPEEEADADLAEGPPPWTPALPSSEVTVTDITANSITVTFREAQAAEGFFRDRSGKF
CBX7 inh z-score = also measured in CBX7 inh; calls as there; z-score; measured here: z-score of CBX7 signal; some inactives read as strong as hits; reference of the scale not given here;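 same signal on another scale; lower means less binding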
Numbers without * were called inactive; & = joins results of further samples. Some of the compounds tested (hit frequency here may not be typical).

Below each compound: CBX7 inh, CBX7 inh z-score
CCC1CCCCN1C(=O)Cn1c(C(=O)OC)cc2ccsc21 (configuration not stated)
    1, 1.4
Cc1ccc2c(c1)-c1c(cnn1CC(=O)NC(C)C)CO2
    1, 1.1
Cc1ccc(-c2nc3ncccc3o2)cc1NC(=O)Cc1ccc(Cl)cc1
    1, 0.0062
CC(C)(C)C(=O)N1CC(=O)Nc2ccc(Cl)cc2C1c1ccc(F)cc1 (configuration not stated)
    0.9, -0.41
Cc1cccc(NC2c3ccccc3C(=O)N2c2ccccn2)c1C (configuration not stated)
    0.99, -0.36
COc1ccccc1Nc1nc(-c2ccccc2)c(CC(=O)O)s1
    1, 0.7
Cc1cc(Br)ccc1NC(=O)C1(S(=O)(=O)c2ccc(Cl)cc2)CC1
    1, 0.16
CCCCN(C)CCNC(=O)c1cc(=O)[nH]c2ccc(S(=O)(=O)N3CCCCCC3)cc12
    0.98, -0.89
COc1ccc(Nc2cc(C(=O)NCC(OC)OC)c3ccccc3n2)cc1OC
    0.81, -2.3
Cn1c(C(=O)NCc2ccc(F)cc2)cc2sccc21
    0.69, -1.2
COc1ccccc1CNC(=O)CCn1nc(-c2ccccc2)ccc1=O
    1.1, 1.8
CC1CCCN(S(=O)(=O)c2ccc3[nH]c(=O)cc(C(=O)NCc4ccccc4)c3c2)C1 (configuration not stated)
    0.98, -0.23
Cc1ccc(CNC(=O)C2CC(=O)N(CCc3ccccc3)C2)cc1 (configuration not stated)
    0.98, -0.39
Fc1ccc(CSc2nc3ncc(Br)cc3[nH]2)c(Cl)c1
    1.1, 0.81
CCc1cccc2c(CCNC(=O)Cn3nc(C)c(Cl)c3C)c(C)[nH]c12
    0.71, -5

Entries of single compounds, looked up by structure:
Listed for Cc1ccc(CNC(=O)C2CC(=O)N(CCc3ccccc3)C2)cc1 (configuration not stated) → CBX7 inh = 0.98; CBX7 inh z-score = -0.39
Listed for Cc1cc(Br)ccc1NC(=O)C1(S(=O)(=O)c2ccc(Cl)cc2)CC1 → CBX7 inh = 1; CBX7 inh z-score = 0.16

New compounds follow.
Below each compound: CBX7 inh, CBX7 inh z-score
Cc1cc(C)cc(C(=O)N(CCc2ccccc2)C2CC3CCC(C2)N3C)c1 (configuration not stated)
    1, 0.66
CC(C)C(NS(=O)(=O)c1cccs1)C(=O)Nc1ccc(C(F)(F)F)cc1 (configuration not stated)
    1.2, 4.9
CC1CCCC(C)N1c1nnc(NC(=O)Nc2ccccc2C(F)(F)F)s1 (configuration not stated)
    1, 0.19
CCC(CO)NC(=O)c1cc2c(n(-c3ccc(Cl)cc3)c1=O)CC(C)(C)CC2=O (configuration not stated)
    1.1, 2.9
O=C(NC1CCCc2ccccc21)C1CCCN(S(=O)(=O)c2cccs2)C1 (configuration not stated)
    1&0.91, 1.5&-1.7
COC(=O)CNc1c(-c2ccccc2)nc2cnccn12
    0.95, -0.38
O=C(NC1CCCC1)c1ccc2c(c1)N(Cc1ccc(F)cc1)CCS2
    0.77, -0.31
O=C(c1ccc2nc(N3CCOCC3)sc2c1)N1CCN(c2ccc(Cl)cc2)CC1
    1.1, 0.53
O=C(Cn1ncc2c1-c1ccccc1OC2)NCCN1CCN(c2ccccc2F)CC1
    0.92, -2.3
COc1cccc(OC)c1C(=O)Nc1c2c(nn1-c1cccc(C)c1)CSC2
    1.1, 2.6
CCOC(=O)Cc1nnc(Nc2cc(C)ccc2C)c2ccccc12
    0.96, -1.2
COc1ccc(-n2ncc3c(NCc4cccs4)ncnc32)cc1
    1.2, 0.6
CCOC(=O)COc1ccc2c(=O)c(-c3ccc4c(c3)OCCO4)c(C)oc2c1
    0.96, -0.57
O=C(Nc1cccnc1Cl)c1cc(C2CC2)on1
    1, 0.015
Cc1ccc(CCNC(=O)c2ccc3c(c2)N(Cc2ccc(F)cc2)CCS3)cc1
    1, -0.016

The list goes on, overlapping the part above by 6 compounds.
Below each compound: CBX7 inh, CBX7 inh z-score
COc1cccc(OC)c1C(=O)Nc1c2c(nn1-c1cccc(C)c1)CSC2
    1.1, 2.6
CCOC(=O)Cc1nnc(Nc2cc(C)ccc2C)c2ccccc12
    0.96, -1.2
COc1ccc(-n2ncc3c(NCc4cccs4)ncnc32)cc1
    1.2, 0.6
CCOC(=O)COc1ccc2c(=O)c(-c3ccc4c(c3)OCCO4)c(C)oc2c1
    0.96, -0.57
O=C(Nc1cccnc1Cl)c1cc(C2CC2)on1
    1, 0.015
Cc1ccc(CCNC(=O)c2ccc3c(c2)N(Cc2ccc(F)cc2)CCS3)cc1
    1, -0.016
CCOC(=O)c1cnc2ccc(OC(F)(F)F)cc2c1Nc1ccccc1C(=O)O
    1&0.79, 1.1&-0.9
O=C(NCCCc1nc2ccccc2n1Cc1ccccc1F)c1ccc(F)cc1
    0.96, -1
CCCCSCCCNC(=O)c1cc(Nc2cc(OC)ccc2OC)nc2ccccc12
    1, 0.059
COc1ccc(C2CC(c3ccc(Cl)cc3)Nc3ncnn32)cc1OC (configuration not stated)
    1, 0.074
CCOC(=O)c1cnc2cc(Cl)c(OC)cc2c1N1CCN(c2cccc(Cl)c2)CC1
    0.91, -1.3
CCCCN(CCCC)S(=O)(=O)c1ccc(C(=O)Nc2nc3c(OCC)cccc3s2)cc1
    1.1, 1.1
Cc1ccc(S(=O)(=O)Nc2ccccc2CNc2cccc(C)c2C)cc1
    0.93, -1.7
COc1cc(NC(=O)C2CCCN2S(=O)(=O)c2cccc3cccnc23)cc(OC)c1 (configuration not stated)
    0.93, -2.2
Cc1ccc(Cn2c(SCc3ccc(F)cc3)nc3ccncc32)cc1
    0.9, -2.4
O=C(Nc1ccc(C(F)(F)F)cc1)C1CCCN(S(=O)(=O)c2cccnc2)C1 (configuration not stated)
    1, 0.2
CCCCC1CCC(c2ccc(-c3ccc(C#N)cc3)nc2)CC1 (configuration not stated)
    1.2, 0.36
Cc1ccc(NC(=O)c2c[nH]n3c(=O)cc(C4CCN(C(=O)OC(C)(C)C)CC4)nc23)cc1
    0.95, -0.13
O=C(Cn1ncc2ccsc2c1=O)NCCCc1ccccc1
    1, 0.24
O=C(CC1Oc2ccc(Cl)cc2NC1=O)NCc1cccnc1 (configuration not stated)
    1.1, 2.9
CCN1CCCC(Nc2ccnc3cc4ccccc4cc23)C1 (configuration not stated)
    1.3, 6.1

Arranged by the number under CBX7 inh z-score (ascending): 3 from the list above.
Structure	CBX7 inh z-score
O=C(Cn1ncc2ccsc2c1=O)NCCCc1ccccc1	0.24
CCCCC1CCC(c2ccc(-c3ccc(C#N)cc3)nc2)CC1 (configuration not stated)	0.36
O=C(CC1Oc2ccc(Cl)cc2NC1=O)NCc1cccnc1 (configuration not stated)	2.9

Remaining list, next part.
Below each compound: CBX7 inh, CBX7 inh z-score
CCc1cccc(C)c1Nc1c(-c2ccccc2)nc2cnccn12
    1.2, 7.6
Cc1nn(CC(O)COc2cccc3ccccc23)c(C)c1Br (configuration not stated)
    1.1, 0.16
Cc1nc2cc(NC(=O)c3ccc(Cl)cc3)ccc2n1-c1ccccc1
    0.96, -0.73
COc1ccc(-c2nn(C)c(=O)c3ccccc23)cc1CNC(=O)c1ccccc1
    1, 0.068
COc1ccc(-c2nnc(NC(=O)Nc3ccc(Cl)cc3)s2)cc1OC
    1.1, 2.2
Cc1cccc(NC2c3ccccc3C(=O)N2c2cccnc2)c1C (configuration not stated)
    0.88, -2
CCN1CCN(c2cc(C)c3cc(NC(=O)Cc4cccc(C(F)(F)F)c4)ccc3n2)CC1
    1.1, 0.67
CCN(C(=O)c1cn(CC(C)C)c(=O)c2cc(OC)c(OC)cc12)c1ccccc1F
    1, 1.3
O=C(NC1CC1)c1ccc2c(=O)n(CCc3ccccc3)c(=O)[nH]c2c1
    1, -0.058
Cn1cc(CC(=O)NCc2ccccn2)c2ccccc21
    1, -0.063
O=S(=O)(NC(c1ccccc1)c1ccccc1)c1cccc2cccnc12
    0.92, -1.7
Cc1ccc(-c2cc(C(=O)NCCCCc3ccccc3)c3ccccc3n2)cc1
    0.94, -0.22
Fc1ccc(Cc2nnc(-c3cccs3)o2)cc1
    1.1, 1.2
CCOCCCNC(=O)CN1C(=O)CSc2ccc(S(=O)(=O)N(CC)CC)cc21
    0.99, -0.19
CCCCN(CC)S(=O)(=O)c1ccc2[nH]c(=O)cc(C(=O)NCc3ccc(OCC)cc3)c2c1
    1, 0.042
O=C(NC1CCCCC1)c1nn2c(c1Cl)NC(c1ccccc1)CC2C(F)(F)F (configuration not stated)
    0.89, -0.93
COc1ccc(-c2noc(CCC(=O)NCC3CCCO3)n2)cc1 (configuration not stated)
    0.92, -0.083
O=C(Nc1sc2c(c1-c1nc3ccccc3s1)CCCC2)c1ccc(S(=O)(=O)N2CCOCC2)cc1
    1, 1.2
CC(=O)N1CCc2cc(S(=O)(=O)NCCCN3CCN(c4cccc(Cl)c4)CC3)ccc21
    1.2, 1.2
CCc1nnc(NC(=O)c2cc(OC)c(OC)c(OC)c2)s1
    0.99, -0.11
CCC(=O)Nc1nonc1-c1nc2ccccc2n1Cc1ccccc1F
    1, 0.25
CC(=O)Nc1ccccc1-c1nc2ccc(C(=O)N3CCN(C4CCCCC4)CC3)cc2[nH]c1=O
    0.95, -1
Cc1ccc(N2CC(C(=O)Nc3ccc(F)cc3)CC2=O)cc1Cl (configuration not stated)
    0.96, -0.77
O=C(CC1(O)C(=O)N(Cc2ccccc2)c2ccccc21)c1ccccc1 (configuration not stated)
    1, 0.016
Cc1cccc(NC(=O)C(CC(C)C)NS(=O)(=O)c2ccc3nc(C)sc3c2)c1 (configuration not stated)
    1, 0.15
COc1ccc(N2C(=O)c3ccc(C(=O)Nc4ccccc4-c4ccccc4)cc3C2=O)cc1
    0.85, -5.3
CCOc1ccc(NC(=O)CC2C(=O)N(c3ccc(F)cc3)C(=O)N2CCC(C)C)cc1 (configuration not stated)
    1.1, 3.1
Fc1cccc(CSc2nc3ccncc3n2Cc2ccc(Cl)cc2)c1
    0.94, -2.7
O=C(CC1Nc2ccccc2NC1=O)NCc1ccc(F)cc1 (configuration not stated)
    1.1, 1.1
CCCOC(=O)c1cccc(NC(=O)c2c(-c3ccccc3Cl)noc2C)c1
    0.8, -2.2
COC(=O)c1ccc(C2C(Oc3ccccc3C)C(=O)N2Cc2ccc(F)cc2)cc1 (configuration not stated)
    0.86, -0.49
CCC1C2c3ccccc3C(c3ccccc32)C1C(=O)Nc1ccc(C)cc1 (configuration not stated)
    1, 0.44
COc1ccc(NC(=O)c2cnn(-c3ccc(C)cc3)c2C2CCNCC2)cc1
    1.1, 0.85
CCOC(=O)c1ccc(NC(=O)CCc2c(C)nc3c(-c4ccc(F)cc4)c(C)nn3c2C)cc1
    0.99, -0.22
CCn1cc(C(=O)N2CCN(Cc3ccc4c(c3)OCO4)CC2)c(=O)c2ccc(C)nc21
    1, 0.34
Cc1cc(Nc2ccc(F)cc2)n2nc(C)nc2n1
    1.1, 2
O=C(CSc1nnc(-c2cccnc2)o1)NCc1ccccc1
    1.1, 0.95
Cc1oc(-c2ccccc2Cl)nc1CS(=O)(=O)CC(=O)NCCc1ccccc1
    0.96, -1
CCCS(=O)(=O)N1CCCC(C(=O)NCCc2ccccc2)C1 (configuration not stated)
    0.99, -0.17
CC(C)CCNC(=O)C(C)C1Sc2ccccc2N(Cc2ccc(F)cc2Cl)C1=O (configuration not stated)
    0.94, -1.1
CCn1c(C(=O)NCc2ccccc2)cc2sc(Cl)cc21
    1.1, 3.2
CCOc1ccc(NC(=O)Cc2cn(C)c3ccccc23)cc1
    0.95, -1.1
CCOC(=O)c1cnc2c(OC)cccc2c1NCC(C)O (configuration not stated)
    0.97, -1.1
Cc1[nH]c2ccc(Br)cc2c(=O)c1CCC(=O)O
    1.1, 2.2
CC(=O)N1c2ccc(S(=O)(=O)NCc3ccccc3Cl)cc2CC1C (configuration not stated)
    1, 0.61
Cc1cccc(OCCOCCOc2ccc(-c3nc4sc5c(c4c(=O)[nH]3)CCCC5)cc2)c1
    1, 1.3
CCCN(CCC)S(=O)(=O)c1ccc2nc(-c3ccccc3)[nH]c2c1
    0.76, -0.32
CCn1c(=O)c(C(=O)NCCCO)c(O)c2ccccc21
    0.85, -1.6
CCOC(=O)c1cnc2c(C)cccc2c1Nc1ccc(N(CC)CC)cc1
    0.12*, -10*
COc1ccc(NC(=O)CCc2nc3ccccc3[nH]2)cc1Cl
    1.2, 2.1
Cc1ccc(CNC(=O)C(Cc2ccccc2)NS(=O)(=O)c2cccc3cccnc23)cc1 (configuration not stated)
    1.1, 0.89
Cc1ccc(-c2nn(CC(=O)Nc3cccc(C(F)(F)F)c3)c(=O)c3ccccc23)cc1
    0.87, -1.5
Cc1cccc(C(=O)Nc2cccc(Oc3nc(C)cc(C)c3C#N)c2)c1
    1.1, 1.5
O=C(C1CC1)N1CCc2cc(S(=O)(=O)NCCN3CCN(c4ccccc4)CC3)ccc21
    0.97, -0.74
O=C(Nc1nccs1)C1CCN(c2ccc(N3CCOCC3)nn2)CC1
    1, 0.34
CC1(C)Cc2c(C#N)c(SCc3ccccc3)nc(N3CCOCC3)c2CO1
    0.92, -1.8
Oc1cccc(/C=C/c2ccc3cccc(OCc4ccccc4)c3n2)c1
    1.1, 0.95
COc1ccc(-c2cc(C(=O)NCc3ccccc3)c3cc(C(C)C)ccc3n2)cc1
    0.99, -0.23
O=C1CC(c2ccccc2)CC2=C1C(c1cccc(F)c1)Nc1ccccc1N2 (configuration not stated)
    0.82, -1.2
COc1ccc(NC(=O)N(Cc2ccc(C)cc2)Cc2cccnc2)c(OC)c1
    0.75, -0.25
CCc1ccc(NC(=O)c2cnn(-c3ccc(C)cc3)c2C2CCN(C(=O)OC(C)(C)C)CC2)cc1
    0.92, -2.7
O=C(CCN1CCC(c2ccccc2)C1)c1cccs1 (configuration not stated)
    1, 0.5
Cc1ccc(CCNC(=O)CN2C(=O)CSc3ncccc32)cc1
    1.1, 2.9
